Screens from PubChem BioAssay.
FGF22 binding: shifts melting point of recombinant human FGF22. recombinant FGF22 thermal shift, SYPRO orange fluorescence; percent of sucrose octasulfate shift, DMSO zero. hit rate 1.5% among 340,000. calls only at 9.99 µM. Q9HCT0;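 active = melting point raised past a set limit in the mean and every replicate; three in four hits are not shown here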
HNF4A DNA FP: change in binding of human HNF4 alpha to DNA; hit rate 0.3% among 360,000; AID 1224865; P41235; HNF4a-FITC DNA binding, fluorescence polarization, 1 h; activity change, % at 10 µM; in the data active = activity change above about 30%, passing the limit was not always enough;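 note: controls were the assay level and a saturating level of protein; the project sought stronger binding though the title names inhibitors; some compounds called inactive have numbers as strong as hits; positive values seem to mean higher polarization but the record does not say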
Target sequence (P41235 whole entry, looked up): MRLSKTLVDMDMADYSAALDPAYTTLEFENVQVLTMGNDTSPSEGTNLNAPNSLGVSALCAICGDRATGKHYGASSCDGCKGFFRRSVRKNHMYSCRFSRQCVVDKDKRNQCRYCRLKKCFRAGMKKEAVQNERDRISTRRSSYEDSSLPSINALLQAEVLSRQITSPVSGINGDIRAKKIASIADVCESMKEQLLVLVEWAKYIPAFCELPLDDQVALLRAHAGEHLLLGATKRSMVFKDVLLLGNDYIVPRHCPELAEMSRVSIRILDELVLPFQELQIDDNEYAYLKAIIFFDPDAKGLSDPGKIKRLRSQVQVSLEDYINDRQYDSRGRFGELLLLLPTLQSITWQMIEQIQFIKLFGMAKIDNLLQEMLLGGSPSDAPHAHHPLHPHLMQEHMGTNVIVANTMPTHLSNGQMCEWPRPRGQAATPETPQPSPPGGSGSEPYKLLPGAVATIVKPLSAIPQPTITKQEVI
UCH37 inh: human UCH37 deubiquitinating enzyme inhibition; inhibition, % (no concentration beside the values); hit rate 0.33% among 330,000; purified proteasome/UCH37, Ub-AMC cleavage fluorescence; Q9Y5K5; AID 588478;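 active = mean of two replicates above 20%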;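 note: 0% = compound-free wells with enzyme and 100% = wells lacking proteasome; stock transfer was 100 nL into about 20 µL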
Target sequence (Q9Y5K5 whole entry, looked up): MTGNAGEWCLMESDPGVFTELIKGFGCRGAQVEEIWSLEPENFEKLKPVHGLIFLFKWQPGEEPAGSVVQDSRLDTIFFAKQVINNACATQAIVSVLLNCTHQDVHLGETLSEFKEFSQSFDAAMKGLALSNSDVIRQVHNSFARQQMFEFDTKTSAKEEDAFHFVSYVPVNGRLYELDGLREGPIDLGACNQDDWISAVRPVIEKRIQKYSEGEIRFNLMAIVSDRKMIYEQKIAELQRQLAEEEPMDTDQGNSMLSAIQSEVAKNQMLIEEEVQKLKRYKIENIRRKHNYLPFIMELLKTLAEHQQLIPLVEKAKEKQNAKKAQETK
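Material: Human UCH37 enzyme supplied as purified proteasome complex | Schedule: 30 min compound-proteasome preincubation then 25 min substrate reaction, room temperature | Detection: AMC fluorescence from Ub-AMC cleavage, excitation 355 nm, emission 460 nm | Benchmarks: Wells without proteasome as full block, compound-free enzyme plus substrate as uninhibited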
B2AR ag: agonists of human beta-2 adrenergic receptor inducing internalization; response, % (concentration not given with the values); hit rate 0.43% among 340,000; AID 504454; Am2.2-beta2AR cells, FAP receptor internalization, flow cytometry; reference of the scale not given here;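 active = response above a set limit, near 3 SD of response in nonfluorescent compounds, cut at about 42% in these data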;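 note: stock transfer was 100 nL into about 11 µL; a reference agonist was the positive control; negative values mostly stem from fluorescent compounds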
Ecoli growth: inhibitors of Escherichia coli growth; OD600, 23 h; hits give low values; OD600 absorbance (test concentration not listed); hit rate 0.21% among 330,000;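 active = OD600 absorbance below the run mean of sample wells minus 3.6 SD, in any replicate, cut at about 0.56 in these data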;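 note: stock transfer was 300 nL into about 60 µL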
ALR H2O2 inh: blocks human ALR sulfhydryl oxidase activity; P55789; purified ALR, DTT oxidation, H2O2 HRP-luminol luminescence; inhibition, % (test concentration not listed); AID 485317; hit rate 3.8% among 290,000;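 active = mean and each replicate at 75% or more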;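 note: stock transfer was 7.5 nL into about 7.5 µL; 0% = neutral wells and 100% = wells with inactivated enzyme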
Target sequence (P55789 whole entry, looked up): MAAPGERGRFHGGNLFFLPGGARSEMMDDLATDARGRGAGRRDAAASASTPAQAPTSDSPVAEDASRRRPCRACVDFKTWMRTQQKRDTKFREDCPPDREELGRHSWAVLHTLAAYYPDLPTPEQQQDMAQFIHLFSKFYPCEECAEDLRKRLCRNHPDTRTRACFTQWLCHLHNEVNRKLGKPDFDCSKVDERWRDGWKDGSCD
rRNA inh HTS: selective bacterial rRNA inhibition in E. coli; hit rate 1.6% among 350,000; E. coli WT GFP vs humanized-ribosome RFP mutants, fluorescence, 24 h; hits give low values; DMSO median 0, no signal -100; GFP signal change (wild-type ribosome), % (test concentration not listed);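 active = significant combined selectivity score with lowered wild-type GFP, culture density cut under 30%, mutant RFP and density less affected; inactive = any of these conditions unmet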; note: one replicate is shown; some compounds called inactive have numbers as strong as hits
rRNA inh HTS OD600: also measured in rRNA inh HTS; calls as there; OD600 change, %; measured here: OD600 growth;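 optical density of the mix in the first replicate; 0 = DMSO median and -100 = no signal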
rRNA inh HTS RFP: further read-out of rRNA inh HTS, marked with its call; RFP signal change, %; measured here: RFP humanized mutant strains;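 first replicate; 0 = DMSO median and -100 = no signal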
Numbers without * were called inactive; i = inactive; . = not tested or not shown. These rows are one share of the data; the hit share may differ from the screen's.

ALR H2O2 inh	rRNA inh HTS RFP	HNF4A DNA FP	rRNA inh HTS OD600	UCH37 inh	rRNA inh HTS	B2AR ag	Ecoli growth	FGF22 binding	smiles
2	-4.7	1.0	-16	-25	-5	8	0.68	i	NS(=O)(=O)c1ccc(NC(=O)COC(=O)CCCN2C(=O)c3cccc4cccc(c34)C2=O)cc1
.	9.2	0.9	-1	.	-8	.	.	i	Cc1cc2nc(-c3ccccc3)c(Cc3ccsc3)n2c(C)c1Br
0	.	4.9	.	-3.5	.	0	0.67	.	COc1cc(/C=C/C(=O)NC(C)(C)C)ccc1OCc1ccccc1
37	-0.4	-0.7	-3	3.5	-5	11	0.72	i	O=C(CN1C(=O)NC2(CCCCCC2)C1=O)NCc1ccc(Cl)cc1
-2	-1.6	-1.8	-8	2.9	2	-5	.	i	C[C@H](NC(=O)c1nc[nH]c1C(=O)N1CCN(C(=O)OC(C)(C)C)CC1)c1ccccc1
-1	.	-1.4	.	1.7	.	8	0.75	i	OC(CN1CCN(c2ccccc2)CC1)c1ccc2c(c1)CCN2 (configuration not stated)
-13	1.6	1.6	5	0.1	2	-1	0.7	i	COc1ccc(OC)c(NC(=O)CSc2nnc(C3CCCCC3)n2N)c1
-5	.	-0.8	.	3.2	.	-8	0.7	.	CCN(CC)S(=O)(=O)c1ccc(C(=O)NNc2nc(-c3ccccc3)c3cc(Br)ccc3n2)cc1
57	-15	1.6	-56	-5.3	-37	3	0.75	i	CC(c1ccccc1)C(NC(=O)OCC1c2ccccc2-c2ccccc21)C(=O)O (configuration not stated)
3	0.1	1.7	14	-3.0	10	-13	0.72	i	COc1ccc(Cl)cc1C(=O)OCC(=O)NCCNC(=O)COC(=O)c1cc(Cl)ccc1OC
.	2.2	0.0	16	.	9	.	.	i	CC1(C(=O)NS(=O)(=O)c2cccc(C#N)c2)CCN1C(=O)Cc1ccc(Cl)cc1Cl (configuration not stated)
-9	4.5	0.2	1	4.8	9	-8	0.72	i	Cc1ccc2[nH]c(C(=O)N3CCN(c4cccc(Cl)c4)CC3)cc2c1
-3	.	-1.9	.	0.8	.	7	0.73	.	Cc1n[nH]c(C)c1N1C(=O)c2cccc3c(Br)ccc(c23)C1=O
10	1.0	0.1	-17	1.7	-10	-5	0.7	i	CN(CC(=O)NCc1ccccn1)S(=O)(=O)c1ccc(Br)cc1
-15	2.3	0.5	4	2.0	6	-4	0.64	i	CC12CC3CC(C)(C1)CC(C(=O)Nc1nncs1)(C3)C2
.	-2.3	-0.9	-18	.	-2	.	.	i	O=C(NCCc1ccccc1)C1Cc2c(-c3ccc4c(c3)OCO4)ccnc2O1 (configuration not stated)
22	-3.8	-2.5	-9	1.4	0	-7	0.73	i	CSc1ccc(Cl)c(C(=O)NNC(=O)c2cccs2)c1
-2	-1.2	4.1	14	-29	10	1	0.73	i	O=C(COc1ccc2c3c(c(=O)oc2c1)CCC3)NCC1CCC(C(=O)O)CC1 (configuration not stated)
-1	2.3	0.2	10	2.4	9	4	0.68	i	CCN1CCN(C(=O)c2ccc(C(F)(F)F)cc2)CC1
-19	-0.1	0.6	3	0.8	14	3	0.68	i	COC(CNS(=O)(=O)c1cc2c3c(c1)CCN3C(=O)CC2)OC
-1	2.3	-4.8	2	4.2	7	-6	0.66	i	CCc1ccc(S(=O)(=O)NCc2cccnc2)cc1
.	.	-19	.	-0.7	.	0	0.57	i	COc1cccc2c(=O)c3cccc(N)c3[nH]c12
8	-0.7	-5.5	0	4.7	4	2	0.64	i	c1ccc(NC2=NCCN2CC2CCC2)cc1
-19	0.5	-0.9	1	1.7	-4	0	0.69	i	COc1cc(NC(=S)NCC2CCCO2)c(OC)cc1Cl (configuration not stated)
2	.	-2.1	.	-1.1	.	1	0.69	.	CC1(C)CC(=O)C(C2NCCc3ccccc32)=C(O)C1 (configuration not stated)
-13	.	-1.8	.	3.5	.	0	0.66	.	Cc1ccc(OCC(=O)NNC(=O)c2cc(C)[nH]n2)cc1
-8	.	3.6	.	-0.6	.	7	0.67	.	O=C1CC(NCc2ccc3c(c2)OCO3)C(=O)N1Cc1ccc2c(c1)OCO2 (configuration not stated)
-10	.	-2.2	.	2.5	.	7	0.71	.	COC(=O)c1ccc(NC(=O)C2CCCCC2C(=O)O)cc1 (configuration not stated)
-17	.	1.6	.	4.0	.	12	0.67	i	COc1ccc(OC)c(NC(=O)C(=O)c2cn(CC(=O)N3CCCC3)c3ccccc23)c1
.	-0.5	2.6	-14	.	0	-1	.	i	Cc1cc(OCc2cn(CC(=O)c3ccc(O)cc3)nn2)ccc1[N+](=O)[O-]
.	-1.4	-1.7	7	6.1	5	-3	0.67	i	CCOc1ccc(N2C(=O)CC(N3CCN(c4ccc([N+](=O)[O-])cc4)CC3)C2=O)cc1 (configuration not stated)
2	2.7	0.3	-1	0.8	-1	9	0.6	i	Cc1ccc(CN2CCN(c3ccccc3Cl)CC2)o1
-54	-0.4*	1.9	0.0*	-0.9	-28*	7	0.7	i	CCOc1ccc(NC(=O)CN(C)CC(=O)Nc2ccc(Br)cc2F)cc1OCC
1	.	1.4	.	5.7	.	5	0.68	.	COc1ccc(S(=O)(=O)NCC(=O)N(CC(=O)NCC2CCCO2)c2c(C)cccc2C)cc1 (configuration not stated)
.	6.6	-1.3	-4	.	-7	-1	.	i	CN(C(=O)c1cccc(NC(=O)Cc2cccc(NC(=O)C3CCCN(C(=O)C4CCCC4)C3)c2)c1)C1CCC1 (configuration not stated)
0	-1.3	0.3	4	4.7	12	5	0.65	i	COC(=O)c1cc(CNC(=O)c2cccc(Cl)c2)ccc1OC
-12	-0.6	1.4	7	3.1	2	-4	0.71	i	COc1ccccc1CNC(=O)C1CCN(S(=O)(=O)c2cccc3nonc23)CC1
.	.	0.4	.	-8.9	.	14	0.74	.	CC[C@]12c3[nH]c4cc(-c5ccco5)ccc4c3CCN1C(=O)[C@@H](CC(=O)NCCC1=CCCCC1)C[C@@H]2C(=O)N1CCN(C(=O)c2ccco2)CC1
0	0.6	3.4	1	0.6	0	-1	0.69	i	O=S(=O)(NCC1(N2CCOCC2)CCCCC1)c1ccc(F)c(F)c1F
4	-2.2	-1.5	-14	2.6	-14	7	0.67	i	Cc1ccc(CCNC(=O)C2CCN(S(=O)(=O)c3cccc4cccnc34)CC2)cc1
-1	-2.5	-1.7	-21	0.1	0	-1	0.61	i	Cc1ccc(C(=O)OCC(=O)N2C(C)CCCC2C)s1 (configuration not stated)
-4	0.9	0.6	11	2.8	15	8	0.73	i	CC(=O)n1c(=O)oc2ccccc21
.	-0.7	-1.6	6	-0.5	12	5	0.63	i	O=C1NCC(Nc2ccccc2Cl)C(=O)N1 (configuration not stated)
.	-0.3	-2.4	6	5.6	8	-1	0.68	i	CCCCc1nc2sc3c(=O)[nH]c(=S)[nH]c3c2c2c1CCC2
5	1.6	-1.8	1	5.4	-3	12	0.67	i	O=C(CN1CCN(c2cccc(Cl)c2)CC1)c1ccc(O)cc1O
.	-0.2	-1.0	-1	2.5	3	-3	0.71	i	Cc1ccc(NC(=S)NC2CCCC2)c(C)c1
-3	14	5.5	6	4.5	16	9	0.68	i	COc1cc2nc(CN3CCN(S(=O)(=O)c4cc(C)ccc4C)CC3)[nH]c(=O)c2cc1OC
6	-2.1	1.8	-3	i	-7	-1	0.68	i	COc1ccc(-c2c(C)c3ccc(O)cc3oc2=O)cc1OC
-2	7.2	-3.9	20	5.4	10	12	0.68	i	O=C(CSc1ccc(Cl)cc1)Nc1ccc(C2SCCS2)cc1
.	4.0	3.8	-5	.	-11	.	.	i	COc1cc(-c2cc(NC=O)c3ncc(-c4ccccc4)n3c2)cc(OC)c1OC
4	0.0	-1.5	-20	-0.5	-18	-9	0.66	i	Cc1nc(SCC(=O)N2CCCCC2)c2c(C)c(C)sc2n1
-2	-8.9	-5.3	-30	3.1	-23	10	0.68	i	O=C(Nc1ccc(N2CCOCC2)c(S(=O)(=O)Nc2ccc(Cl)cc2)c1)c1ccc(=O)[nH]n1
-3	.	-0.5	.	-0.6	.	11	0.65	.	Cc1[nH]c2ccc3c(ncn3CCC#N)c2c1C
59	-3.9	23	-30	-60	-13	20	0.84	i	CCOC(=O)N1CCc2c(sc(NC(=O)c3ccc(S(=O)(=O)N4CCCC4)cc3)c2C#N)C1
-16	-1.2	-2.3	-1	0.4	5	6	0.66	i	c1ccc(OCCCn2nnc(-c3ccc(N4CCOCC4)cc3)n2)cc1
99*	4.6	-0.1	9	3.6	3	-6	0.67	i	Cc1ccc(CN2C(=O)CC(Nc3ccc(N4CCOCC4)cc3)C2=O)cc1 (configuration not stated)
2	.	-3.3	.	4.2	.	0	0.71	.	Cc1ccc(NC(=O)CSc2nnc(C)n2-c2ccccc2)cc1
-18	4.0	1.7	15	4.8	5	12	0.62	i	Cc1cc(C)cc(N(C(C)C(=O)N2CCCC2)S(C)(=O)=O)c1 (configuration not stated)
-6	-3.8	-0.8	-6	-0.7	-4	10	0.74	i	COc1ccc(C(=S)N2CCN(S(=O)(=O)c3ccccc3)CC2)cc1
.	-5.5	-0.5	-26	0.8	2	-3	0.63	i	Cc1cc(C)nc(SCC(=O)c2ccc(Cl)cc2)n1

(further entries)
ALR H2O2 inh	rRNA inh HTS RFP	HNF4A DNA FP	rRNA inh HTS OD600	UCH37 inh	rRNA inh HTS	B2AR ag	Ecoli growth	FGF22 binding	smiles
75	-1.8	48*	-4	5.3	-7	-12	0.66	i	COc1cc(/C=C2/CC/C(=C/c3ccc(O)c(OC)c3)C2=O)ccc1O
-4	-2.2	1.4	-10	0.6	-15	-1	0.66	i	CC(Sc1nc(-c2ccc(F)cc2)cs1)C(=O)N1c2ccccc2CC1C (configuration not stated)
.	-2.2	1.9	4	1.0	-2	-1	0.69	i	COc1cc(OC)c(C(=O)OCC(=O)c2ccc3c(c2)NC(=O)CO3)cc1OC
-5	.	-2.1	.	1.8	.	-10	0.69	.	Cc1cccc(N(C(=O)c2nsc(Cl)c2Cl)C(C(=O)NC2CCCC2)c2ccc(O)cc2)c1 (configuration not stated)
-2	-2.2	5.2	10	-1.1	9	-1	0.61	i	COc1ccc(OC)c(NC(=O)CSc2nnc(-c3ccco3)o2)c1
-3	.	-2.8	.	-1.5	.	-6	0.76	.	O=C(COC(=O)Cc1ccsc1)NCC1CCCCC1
-1	-8.9	3.7	-37	-0.1	-9	-5	0.7	.	Cc1cc(SCC(=O)NC2CCCC2)nc2ccccc12
-3	.	1.5	.	0.3	.	4	0.71	.	Cc1nc2ccc(NS(=O)(=O)c3ccc4c(c3)OCCO4)cc2s1
0	.	-4.3	.	5.2	.	-7	0.73	.	Cc1cccc(NC(=O)CCn2ccnc2C)c1
